Bioassay records from PubChem.
Env fusion inh: inhibitors of HIV Env-mediated cell fusion; AID 651610; actives 1.1% (n = 360,000); HeLa-JRFL Env/CEM21 cell fusion, luciferase; inhibition, % at 12.3 µM;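 active means mean replicate inhibition score of at least 50 and every replicate individually at or above 50; inconclusive means only one of the two criteria met; inactive means mean below 50 and not all replicates reaching 50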;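 further: 0% = plate neutral controls and 100% = maraviroc near 300 nM; one replicate is shown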
UUG fidelity: yeast start codon fidelity modulation; S. cerevisiae UUG-firefly luciferase reporter, luminescence/redox ratio; activity score, % at 18.7 µM; actives 0.13% (n = 350,000);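 active means replicate mean at a twofold rise or more, about +100% in these data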;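 further: firefly luciferase made from a UUG start codon reports start codon fidelity; reporter light over untreated wells divided by growth signal over untreated wells; some hits fall short of that in this replicate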
eIF4H FP inh: inhibitors of RNA binding by human eIF4H | Q15056 | eIF4H fluorescence polarization binding assay | inhibition, % at 35 µM | actives 0.94% (n = 290,000);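 active means 50% or more with normal probe brightness, or confirmed in later tests; inconclusive means above 50% with abnormal brightness, or retests that disagree; inactive means below 50% or failed in later tests; about a fifth of its hits are not listed in these tables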;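 further: calls also rest on retests at 20 µM and on dose response follow-up; 0% = protein and probe with vehicle and 100% = probe without protein; strong numbers were not always called active; many hits fall short of the cut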
Rce1 inh: yeast Ras-converting enzyme inhibition. Q03530. yeast membranes, quenched prenylated peptide cleavage fluorescence. calls only. actives 0.27% (n = 290,000);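 active means fall in fluorescence gain of 50% or more versus controls, with final raw signal at or below 3038400; inconclusive means same 50% fall but final raw signal above 3038400; inactive means fall in fluorescence gain under 50%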;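 further: plate controls were neutral control wells for no effect and wells lacking membranes for full effect; tested at 10 µM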
Target sequence (Q03530 whole entry, looked up): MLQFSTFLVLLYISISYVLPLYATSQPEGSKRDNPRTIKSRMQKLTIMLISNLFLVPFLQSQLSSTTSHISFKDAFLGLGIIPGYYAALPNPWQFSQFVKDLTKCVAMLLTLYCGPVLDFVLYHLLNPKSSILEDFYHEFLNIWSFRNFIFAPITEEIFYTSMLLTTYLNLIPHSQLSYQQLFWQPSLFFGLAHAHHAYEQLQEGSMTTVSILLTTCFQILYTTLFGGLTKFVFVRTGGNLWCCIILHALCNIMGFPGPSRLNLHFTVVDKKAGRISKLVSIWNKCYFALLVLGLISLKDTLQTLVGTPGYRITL
PABP FP inh: PABP-poly(A) binding inhibition; P11940; PABP-poly(A) RNA binding, fluorescence polarization; inhibition, % at 35 µM; actives 1% (n = 290,000);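 active means 50% or more with normal probe brightness, or confirmed in later tests; inconclusive means above 50% with abnormal brightness, or retests that disagree; inactive means below 50% or failed in later tests; about a fifth of its hits are not listed in these tables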;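 further: calls also rest on retests at 20 µM and on dose response follow-up; controls were probe without protein and protein plus probe with vehicle; some compounds called inactive have numbers as strong as hits; many hits fall short of the cut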
Target sequence (P11940 whole entry, looked up): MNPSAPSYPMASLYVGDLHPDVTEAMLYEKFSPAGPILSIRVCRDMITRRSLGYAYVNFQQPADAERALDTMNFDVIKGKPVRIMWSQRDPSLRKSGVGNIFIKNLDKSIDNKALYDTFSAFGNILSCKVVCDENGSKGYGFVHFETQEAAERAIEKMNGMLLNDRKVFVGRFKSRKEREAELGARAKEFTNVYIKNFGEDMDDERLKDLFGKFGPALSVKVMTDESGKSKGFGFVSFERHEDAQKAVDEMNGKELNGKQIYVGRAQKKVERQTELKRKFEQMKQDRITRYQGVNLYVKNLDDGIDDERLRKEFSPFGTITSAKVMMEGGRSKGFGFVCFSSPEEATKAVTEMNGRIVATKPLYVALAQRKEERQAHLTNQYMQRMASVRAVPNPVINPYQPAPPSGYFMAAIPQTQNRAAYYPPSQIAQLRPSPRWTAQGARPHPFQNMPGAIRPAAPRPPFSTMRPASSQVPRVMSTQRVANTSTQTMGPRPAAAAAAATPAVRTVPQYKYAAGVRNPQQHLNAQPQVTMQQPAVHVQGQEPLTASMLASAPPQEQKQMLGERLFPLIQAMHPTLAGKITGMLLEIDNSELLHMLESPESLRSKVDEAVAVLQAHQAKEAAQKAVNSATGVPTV
MT1-MMP act inh: MT1-MMP (human) activation inhibition; P50281; HT1080 RFP-PRO-GFP cells, GFP/RFP ratio fluorescence, overnight; percent of plate control window, DMSO zero; GFP/RFP ratio change, % at 20 µM; actives 0.061% (n = 360,000); AID 651647;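 active means GFP/RFP ratio change of at least 30% with cell ATP level not reduced by more than half and red fluorescence within 50% of control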; further: strong numbers were not always called active
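Assay system: HT1080 RFP-PRO-GFP cells | Dosing: 20 µM single dose, 1% DMSO | Incubation: Cells overnight before dosing, compound overnight, 37 °C, 5% CO2 | Evaluation: GFP/RFP fluorescence ratio | Control set: DMSO-only wells and HT1080 RFP-L50D-GFP cell wells as references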
CSC inhib: cancer stem cell inhibition. cancer stem cell-like cells viability, luminescence. inhibition, % at 7.5 µM. actives 1.1% (n = 300,000);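 active means mean at 75% or more and at least half the replicates too; inconclusive means mean and replicates disagree; tested in HMLE shEcad cells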;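 further: 0% = median of negative and 100% = median of positive control wells; the first replicate is given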
eIF4H FP inh retest: further read-out of eIF4H FP inh, marked with its call; inhibition, %; compound at 20 µM; confirmation average;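 mean of two retest wells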
PABP FP inh retest: second read-out of PABP FP inh, no call of its own (marks repeat the call); inhibition, %; compound at 20 µM; confirmation repeats;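 mean of two retest wells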
MT1-MMP act inh RFP: further read-out of MT1-MMP act inh, marked with its call; RFP signal change, %; measured here: RFP expression control read;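 0 = vehicle wells; hits needed this value within 50% of zero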
The depositor's hits bear a star; i = inactive; ? = inconclusive; . = no result given.

SMILES	Env fusion inh	UUG fidelity	eIF4H FP inh	Rce1 inh	PABP FP inh	MT1-MMP act inh	MT1-MMP act inh RFP	CSC inhib	others
O=C(CCc1ccccc1)NNC(=O)Cc1ccccc1	-20	.	-1	i	4	3	3	-20
Cc1ccc2[nH]c(=O)c(CN(Cc3ccc4c(c3)OCO4)Cc3nnnn3C3CCCC3)cc2c1	.	-16	6	i	9	-10	-10	0
CCS(=O)(=O)NCCCCc1ccccc1	-46	.	-5	i	0	2	0	-8
CC(C)(C)C(=O)Nc1ccc(C(=O)NNC(=O)Cc2ccccc2)cc1	.	-12	-4	i	-6	0	2	-2
c1ccc(-n2nnnc2NCCCN2CCOCC2)cc1	.	-5	1	i	-3	1	1	-10
COc1ccc(C(=O)NCc2ccc(C(=O)NCC(OC)OC)cc2)cc1OC	11	.	5	i	-8	1	3	2
CCc1nc2ccc(C(=O)NCCOc3ccc(OC)cc3)cn2c1N(CC)CCOC	-26	-6	.	.	.	-4	0	.
CN1CCN(C(=O)NCC23CC4CC(CC(C4)C2)C3)CC1	32	.	-2	i	-10	1	5	-12
CCOc1ccc(CCNC(=O)C2CCCN(c3nn4c(=O)cc(C)nc4s3)C2)cc1 (stereo unspecified)	.	16	-2	i	0	3	-2	8
CC1(c2nnc(-c3cccc(Cl)c3)o2)CC(c2cccc(Cl)c2)=NO1 (stereo unspecified)	40	-6	.	i	.	3	5	-15
COc1ccc(CCC2(C)OCC(CCCCO)O2)cc1 (stereo unspecified)	24	-17	.	.	.	-4	-2	.
O=C(Nc1ncnc2sc3c(c12)CCCCC3)c1ccco1	.	.	3	i	11	8	6	2
Cc1ccc(Nc2ccc(N)cc2S(=O)(=O)O)cc1	-9	-12	19	i	22	15	12	-2
O=C(O)CNC(=O)CCCn1nnc2ccccc2c1=O	-21	.	0	i	1	-2	5	-13
CCCn1c(=O)c2ccccc2n2c(SCCNCCO)nnc12	8	-2	36	i	46	0	2	-10
CCOc1cc(C)c(C(C)C)cc1S(=O)(=O)n1ccc(C)n1	.	-3	7	i	0	-3	-2	-4
COc1ccc(NC2CC(=O)N(CCc3ccccc3)C2=O)cc1 (stereo unspecified)	.	-15	4	i	1	0	-5	-6
O=C(Cc1ccccc1)n1nc(-c2ccco2)nc1SCc1ccccc1	-61	-1	-2	i	4	-1	2	0
COc1cc(C2C(C(=O)c3ccc(C)o3)=C(O)C(=O)N2c2cc(C)on2)cc(OC)c1OC (stereo unspecified)	-83	-12	.	i	.	-6	-1	-2
Cc1cc(C)c(NC(=O)CCCN2CCOCC2)c(C)c1	-5	-21	0	i	-8	0	4	-23
CN(Cc1ccccc1)c1ncnc(N)c1[N+](=O)[O-]	?	.	-3	i	13	-14	-13	-21
O=C1CC(O)(c2ccccc2)C(c2ccccc2)=C1c1ccccc1 (stereo unspecified)	.	5	-3	i	0	-6	-6	59
COc1ccc(NS(=O)(=O)CC23CCC(CC2=O)C3(C)C)cc1 (stereo unspecified)	-33	5	0	i	-1	-1	1	-12
CC(=O)Nc1cc(-c2cccc(C(=O)N(C)C)c2)cn2c(-c3ccc(C(C)=O)cc3)cnc12	?	-4	.	.	.	1	6	.
CC(C)CNC(=O)COC(=O)Cc1ccc(Cl)cc1	-3	.	-12	i	54	6	4	1	eIF4H FP inh retest=2;PABP FP inh retest=-2
CCN(CCn1cccn1)Cc1c(C(=O)N2C[C@@H](C)O[C@@H](C)C2)nc2ccc(Cl)cn12	6	8	43	i	46	-7	0	8
CC1(C)C/C(=N\O)c2cc3c(nc2C1)CCCC3	-34	-18	-6	i	8	-10	2	-2
Cc1noc(C)c1S(=O)(=O)NC(=O)C1(C)CCN1C(=O)CC(c1ccccc1)c1ccccc1 (stereo unspecified)	14	0	.	.	.	-1	1	.
COc1ccc(-c2csc(NC(=O)CSc3nc4ccccc4c(=O)[nH]3)n2)cc1	2	-19	51	i	0	3	-5	.	eIF4H FP inh retest=23;PABP FP inh retest=1
Cc1sc2ncnc(N3CCC(C(=O)Nc4ccc(Cl)c(Cl)c4)CC3)c2c1C	.	-14	.	.	.	6	1	70
O=C(CN1C(=O)c2cccnc2Oc2ccc(Cl)cc21)N1CCCCCC1	-4	-17	.	i	.	3	-2	-11
COc1ccccc1CNC(=O)c1ccc2ccccc2n1	-6	-10	2	i	6	-5	-3	22
COc1ccc2[nH]c(=O)c(CN(C(=O)c3ccccn3)C3CCCCC3)cc2c1	.	-7	-11	i	0	4	2	-2
CCOC(=O)c1sc(NC(=O)c2ccc(Br)o2)cc1C	.	.	-12	i	2	4	-4	-8
Cn1c(CC(=O)Nc2ccccc2F)nnc1SCC(=O)NC1=NCCS1	4	-11	3	i	-6	1	3	-8
O=C(Nc1ccc(O)c2c(=O)cc(-c3ccccc3Cl)oc12)c1cccs1	0	-13	-12	i	-3	2	-1	12
COc1cc(CNc2cccc3[nH]c(C(F)(F)F)nc23)cc(OC)c1	-11	-10	-11	i	4	0	-2	-4
CCn1c(C(=O)N2CCC(C(=O)NCCCSC3CCCCC3)CC2)cc2sccc21	-11	-11	3	i	1	6	-16	23
COc1ccc([N+](=O)[O-])cc1/C=N/Nc1nn[nH]n1	7	.	-3	i	20	7	8	-26
O=C(Nc1nc2ccccc2n1Cc1ccccc1)c1ccc(COc2ccccc2[N+](=O)[O-])o1	.	-13	14	i	-6	6	-1	.

Sorted by count of non-hydrogen atoms (low to high): part of the list above.
SMILES	Env fusion inh	UUG fidelity	eIF4H FP inh	Rce1 inh	PABP FP inh	MT1-MMP act inh	MT1-MMP act inh RFP	CSC inhib	others
COc1ccc([N+](=O)[O-])cc1/C=N/Nc1nn[nH]n1	7	.	-3	i	20	7	8	-26
CCn1c(C(=O)N2CCC(C(=O)NCCCSC3CCCCC3)CC2)cc2sccc21	-11	-11	3	i	1	6	-16	23
CC(=O)Nc1cc(-c2cccc(C(=O)N(C)C)c2)cn2c(-c3ccc(C(C)=O)cc3)cnc12	?	-4	.	.	.	1	6	.

Filtered by structure: the compounds so far with a Cl atom.
SMILES	Env fusion inh	UUG fidelity	eIF4H FP inh	Rce1 inh	PABP FP inh	MT1-MMP act inh	MT1-MMP act inh RFP	CSC inhib	others
CC1(c2nnc(-c3cccc(Cl)c3)o2)CC(c2cccc(Cl)c2)=NO1 (stereo unspecified)	40	-6	.	i	.	3	5	-15
CC(C)CNC(=O)COC(=O)Cc1ccc(Cl)cc1	-3	.	-12	i	54	6	4	1	eIF4H FP inh retest=2;PABP FP inh retest=-2
CCN(CCn1cccn1)Cc1c(C(=O)N2C[C@@H](C)O[C@@H](C)C2)nc2ccc(Cl)cn12	6	8	43	i	46	-7	0	8
Cc1sc2ncnc(N3CCC(C(=O)Nc4ccc(Cl)c(Cl)c4)CC3)c2c1C	.	-14	.	.	.	6	1	70
O=C(CN1C(=O)c2cccnc2Oc2ccc(Cl)cc21)N1CCCCCC1	-4	-17	.	i	.	3	-2	-11
O=C(Nc1ccc(O)c2c(=O)cc(-c3ccccc3Cl)oc12)c1cccs1	0	-13	-12	i	-3	2	-1	12

Further records:
SMILES	Env fusion inh	UUG fidelity	eIF4H FP inh	Rce1 inh	PABP FP inh	MT1-MMP act inh	MT1-MMP act inh RFP	CSC inhib	others
CCOC(=O)CSc1nnc(CNc2cccc(Cl)c2)n1C	-43	-15	-1	i	4	3	3	-9
O=C1/C(=C/c2ccccn2)SC(=S)N1CCc1ccccc1	-7	.	-2	i	-3	4	8	-3
O=C(O)c1cccc(S(=O)(=O)Nc2ccc3c(c2)CCC3)c1	-4	-10	3	i	7	2	1	.
Cc1ccsc1CNC12CC3CC(CC(C3)C1)C2	-11	.	-3	i	4	-1	-1	26
COC(=O)Cc1csc(Nc2ccc(F)c(Cl)c2)n1	-4	.	-4	i	17	5	5	-1
CSc1ccccc1C(=O)OCC(=O)NC1CCCCCCC1	-11	-12	.	.	.	3	3	.
Cc1c(O)ccc(/C=N/Nc2ncccc2[N+](=O)[O-])c1O	-147	2	12	i	-3	1	-5	15
COC(=O)Cn1cc(/C=C/c2cc[n+](C)cc2)c2ccccc21	-6	-26	?	i	?	-149	0	-1
COc1ccc(OC)c(/C=C/C(=O)OCC(=O)N2C(C)CCCC2C)c1 (stereo unspecified)	92*	-28	.	.	.	-1	4	.
O=C(c1nc2ccc(Cl)cn2c1CNCCc1cnccn1)N1CCCCCCC1	-1	-18	3	i	3	-2	3	0
O=S(=O)(Nc1ncccn1)c1ccc(NC(=S)Nc2ccc(Cl)cc2)cc1	-12	.	-5	i	7	3	3	19
Cc1nc2cc(NCc3ccccc3O)ccc2n1Cc1ccccc1	8	.	-1	i	-3	1	-1	-4
CC(=O)Nc1ccc(SCC(=O)NCCc2ccc(F)cc2)cc1	-2	-6	-1	i	1	-3	-6	.
CC(=O)c1ccc(NC(=O)CNCC(c2ccccc2)N(C)C)cc1 (stereo unspecified)	5	.	-5	i	-3	-11	-4	-6
Cc1nn(-c2ccccc2)c(C)c1C1C(C#N)=C(N)Oc2n[nH]c(C)c21 (stereo unspecified)	8	6	-1	i	3	4	4	-18
Cc1cc(C)c(C2C(C#N)=C(N)Oc3n[nH]c(C)c32)cc1CN1CCCC1 (stereo unspecified)	.	-19	1	i	-18	-4	-2	2
Cc1cc([N+](=O)[O-])ccc1NC(=O)COc1nsnc1N1CCOCC1	0	-6	-6	i	-1	4	2	.
COc1cc(NC(=O)CN(C)S(=O)(=O)c2ccc(C)cc2)cc(OC)c1	-20	13	0	i	1	4	8	-10
